# Mtb hypoxia inh: reduces hypoxia-regulated biosensor signal in M. tuberculosis. M. tuberculosis hypoxia-regulated fluorescent reporter, fluorescence. fluorescence inhibition, % (no concentration beside the values). hit rate 0.1% among 300,000. AID 1159583;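 active = 35 to 45% if threefold the growth effect, above 45% if 1.5-fold the growth effect; inactive = the rest, general growth blockers included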;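 also: wells of about 50 µL received 100 nL stock; 0% = vehicle wells and 100% = reference inhibitor wells; whole bacteria with a GFP reporter of the hypoxia response; strong numbers were not always called active; many hits fall short of the cut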
# ugtP null kill: kills S. aureus RN4220 lacking UgtP; S. aureus RN4220 ugtP deletion, OD600 growth, 16 h; some inactives read as strong as hits; growth inhibition, % (test concentration not listed); hit rate 0.54% among 330,000; AID 1259309;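 active = z-score under -3 and OD600 up to 0.15 on both plates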;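 also: plate controls were untreated wells for no effect and antibiotic for full effect; wells of about 80 µL received 100 nL stock; the first replicate is given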
# Autofluor counter: flagged as autofluorescent in microsphere protease counterscreen; compound autofluorescence counterscreen, microsphere flow cytometry; active compounds read high; fluorescence intensity (no concentration beside the values); hit rate 3.1% among 360,000;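 active = at least 3 SD above the mean of all compounds, about 16000 in these data; inconclusive = too few beads counted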;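 also: 100 nL of 1 mM stock went into each well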
# BJeLR lethal: BJeLR cell viability loss; BJeLR (HRASV12) viability, CellTiter-Glo ATP luminescence, 48 h; reference of the scale not given here; inhibition, % (test concentration not listed); hit rate 0.17% among 300,000;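 active = replicate mean above 50%; inconclusive = above 50% but judged a plate artefact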;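 also: 50 nL library stock added to about 25 µL; numbers are from one replicate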
# RN4220 kill: kills Staphylococcus aureus RN4220 | S. aureus RN4220 growth, OD600, 16 h | inhibition, % (no concentration beside the values) | hit rate 0.33% among 330,000 | AID 1259311;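 active = z-score of -3 or lower and OD600 up to 0.18 on both plates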;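 also: plate controls were untreated cells for no effect and reference antibiotic for full effect; stock transfer was 100 nL into about 80 µL; one replicate is shown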
# PrP UTR inh: suppresses PrP 5' UTR mRNA reporter expression; cell-based PrP 5' UTR mRNA reporter, plate reader; inhibition, % (concentration not given with the values); hit rate 0.35% among 340,000; AID 488862;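 active = every replicate at 50% or more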;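 also: 0 = median of the neutral control wells; tested in H4 reporter cells; numbers are from one replicate; inactives centre near -14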
# Mtb hypoxia inh growth: second read-out of Mtb hypoxia inh, no call of its own (marks repeat the call); growth inhibition, %; measured here: M. tuberculosis growth (absorbance);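 0% = vehicle and 100% = reference antibiotic; read after six days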
# The depositor's hits bear a star; ? = inconclusive; · = not tested or not shown; & = joins results of further samples.
# Fields – Mtb hypoxia inh	Mtb hypoxia inh growth	ugtP null kill	Autofluor counter	BJeLR lethal	RN4220 kill	PrP UTR inh
[1] CCC(C)C1(C2CCCC2)NC(=O)NC1=O (stereo not drawn)
  -12	9	-7	3858	·	0.1	-22
[2] COC(=O)[C@@H](NC(=O)NCc1ccc(F)cc1)C(C)C
  12	8	1	11392	-3	2.3	-32
[3] CCc1cc(=O)oc2c3c(cc(OCC(=O)NCCN4CCOCC4)c12)OC(C)(C)CC3
  ·	·	-13	5874	-3	4.0	-41
[4] C=CCOC(=O)C1=C[C@@H](c2csc3ccccc23)C[C@@H](OCCCCO)O1
  ·	·	·	3826	-7	·	-16
[5] Cc1cccc(-c2nc(CS(=O)CC(=O)N3CCN(C)CC3)c(C)o2)c1 (stereo not drawn)
  7	3	10	5946	-15	2.9	-12
[6] COCCN(C(=O)c1ccc(-c2ccc([N+](=O)[O-])cc2)o1)c1c(N)n(CC(C)C)c(=O)[nH]c1=O
  -3	2	-10	6751	·	-1.0	-8
[7] COc1cc(C=NS(=O)(=O)c2ccccc2)cc(OC)c1O
  2	0	1	·	·	2.1	·
[8] CN1CCN(C(c2ccccc2)c2ccc(Cl)cc2)CC1 (stereo not drawn)
  16	14	-1	4334	·	-7.9	1
[9] FCCCOc1ccc(-c2nccc(-c3ccc(Br)cc3)n2)cc1
  ·	·	-2	5101	2	-2.9	-16
[10] O=C(CSc1nnc(-c2cnccn2)n1Cc1ccco1)c1ccccc1
  16	7	-10	17135*	2	2.0	-5
[11] COC(=O)c1c(NC(=O)COC(=O)c2ccc(Cl)nc2)sc(C)c1C
  15	1	7	8960	0	4.6	-2
[12] CC(C)c1ccc(C(O)P(=O)(OCc2ccccc2)c2ccc(N(C)C)cc2)cc1 (stereo not drawn)
  -5	2	-4	3884	-2	5.0	-14
[13] C#CCOc1c(Br)cc(C=NNC(=O)CN2CCOCC2)cc1OCC
  1	-2	2	·	·	0.1	·
[14] CNc1c(NS(=O)(=O)c2ccc(F)cc2)c(=O)oc2ccccc12
  -1	2	-3	3618	5	10	-11
[15] CCN(CC)S(=O)(=O)c1ccc(=O)[nH]c1
  ·	·	·	4525	3	·	-6
[16] CCOC(=O)C(OC(=O)c1sc(=S)n(C)c1C)C(C)=O (stereo not drawn)
  5	-2	1	3046	-12	-13	-9
[17] CN(C)c1cccc(N(C)C)c1CNC(=O)NC(=O)c1c(F)cccc1F
  -3	5	11	5660	-13	0.9	-9
[18] CC(=O)c1cccc(NC(=O)C(OC(=O)c2cccs2)c2ccccc2)c1 (stereo not drawn)
  -3	-5	-2	2386	-5	-1.2	-33
[19] O=[N+]([O-])C1=C(Nc2cccc3ccccc23)CS(=O)(=O)C1
  -1	3	-6	9862	-9	10	-38
[20] CC(=O)Nc1ccc(NC(=O)[C@@H](NC(=O)c2ccccc2F)C(C)C)cc1
  -5	3	5	3643	-3	2.0	8
[21] O=C(NC(=S)Nc1ccccc1N1CCCC1)c1cccs1
  -1	6	-4	4120	-6	-1.2	-2
[22] CN(C)CCCNc1oc(/C=C/c2ccccc2)nc1C#N
  20	-2	2	5401	10	1.2	-13
[23] CC(OC(=O)C1CC(O)CN1S(=O)(=O)c1ccccc1[N+](=O)[O-])C(=O)N1CCCCC1 (stereo not drawn)
  -1	-2	-7	2465	-4	-6.1	-11
[24] CCOC(=O)C1=C(C)NC(=O)NC1c1ccc(-c2ccc(F)cc2)o1 (stereo not drawn)
  8	0	2	4987	-7	1.2	-3
[25] COC1=C(C)C(=O)O[C@]12C(=O)C(C)=C1CCCCN3C(C4CC(C)C(=O)O4)CC[C@]132 (stereo partly drawn)
  6	8	6	·	·	7.8	·
[26] COc1cccc(CN(C)C(=O)/C=C/c2ccc(S(=O)(=O)N3CCCCCC3)cc2)c1
  -5	7	2	5937	5	-1.8	-16
[27] CCOC(=O)c1c(S(=O)(=O)N(C)Cc2ccccc2)c(C)n(C)c1C
  1	7	4	5555	0	3.7	-6
[28] Cc1onc(-c2ccccc2Cl)c1C(=O)N1CCc2ccccc2C1
  13	0	8	9297	-3	9.1	-24
[29] Cc1cccc(C)c1NC(=O)COC(=O)c1cc[n+]([O-])cc1
  -4	7	-3	6633	7	-1.4	-8
[30] Cc1ccc(S(=O)(=O)n2nc(C)c(Br)c2C)c(C)c1C
  13	11	25	2687	-3	3.9	-18

# The last 2 compounds of the part above are carried over, then new ones follow.
# Fields – Mtb hypoxia inh	Mtb hypoxia inh growth	ugtP null kill	Autofluor counter	BJeLR lethal	RN4220 kill	PrP UTR inh
[29] Cc1cccc(C)c1NC(=O)COC(=O)c1cc[n+]([O-])cc1
  -4	7	-3	6633	7	-1.4	-8
[30] Cc1ccc(S(=O)(=O)n2nc(C)c(Br)c2C)c(C)c1C
  13	11	25	2687	-3	3.9	-18
[31] Cn1nnnc1SCC(=O)Nc1cc(S(=O)(=O)N2CCCC2)ccc1Cl
  1	9	-9	3459	-14	-1.8	-13
[32] Cc1ccc(C2OC(=O)c3ccccc32)cc1 (stereo not drawn)
  -5	7	2	8747	6	1.4	-23
[33] O=C(CSc1nc2ccccc2c(=O)n1-c1ccc(F)cc1F)Nc1ccc(N2CCOCC2)cc1
  -3	0	-3	2482	-18	0.6	1
[34] CCOc1cc(CN2CCCC(CO)(Cc3ccc(F)cc3F)C2)ccc1OC (stereo not drawn)
  4	7	0	4092	-6	-5.2	2
[35] COC(=O)c1cccc(N2C(=O)c3cccnc3C2=O)c1
  9	8	-5	·	-2	-7.3	-20
[36] CCCCCCSc1ccc(-c2nc3ccc(C)cn3c2NCc2ccccc2)cc1OC
  8	3	-13	2874&5887	-5	12	-7
[37] CN(CC(=O)Nc1c(Cl)cccc1Cl)C(=O)c1ccccc1SCC(=O)N1CCCC1
  ·	·	·	6649	6	·	-7
[38] COc1ccc(NC(=O)Nc2nnc(C(C)(C)C)s2)cc1
  -4	0	2	5488	-3	4.2	-28
[39] CC(C)(Cl)[N+](=O)[O-]
  9	4	1	5642	·	5.0	-4
[40] COc1cc(C(=O)NCc2nnc(SCC(=O)N3CCOCC3)o2)cc(OC)c1OC
  -1	3	7	2532	1	3.2	2
[41] CCN1CCn2c1nc(N1CCOCC1)nc2=O
  15	5	1	8884	9	1.4	-15
[42] C=C(C)c1cccc(C(C)(C)NC(=O)Nc2ccc(Cl)cn2)c1
  -1	-22	-21	2495	9	-5.5	-14
[43] Cc1cccnc1NC(=O)CCn1c(=O)oc2ccccc21
  0	12	1	6175	10	0.8	-24
[44] O=C(CC1NCCNC1=O)Nc1ccc(Oc2ccccc2)cc1 (stereo not drawn)
  2	1	8	16899*	7	5.2	-16
[45] COCCN(C(=O)COC(=O)/C=C/c1ccccc1Cl)c1c(N)n(Cc2ccccc2)c(=O)[nH]c1=O
  7	-3	13	4046	-2	4.9	-6
[46] COc1cccc(S(=O)(=O)NCc2ccc(C(=O)NCC3CCCO3)cc2)c1 (stereo not drawn)
  8	8	5	10761	-12	1.4	-67
[47] COc1ccc(OC)c(NC(=O)CSCc2cnn(-c3ccccc3)c2-n2cccc2)c1
  7	2	26	2675	-3	2.2	-20
[48] N#Cc1c(/N=C/c2ccc(-c3ccccc3C(=O)O)o2)sc2c1CCCC2
  ·	·	·	4040	6	·	-31
[49] O=C(CC1C(=O)NCCN1Cc1cccc(Oc2ccccc2)c1)NCCCn1cccn1 (stereo not drawn)
  -6	1	5	2380	-2	3.3	-9
[50] CCCCCCOc1ccc(CN2CCN(C)CC2)cc1
  10	6	86*	24568*	-9	0.3	-36
[51] O=C(N/N=C/c1ccc(-c2ccc(S(=O)(=O)Nc3ncccn3)cc2)o1)c1cc2ccccc2cc1O
  ·	·	·	3223	0	·	-22
[52] CCOc1ccc(-n2c(-c3cccs3)nc3ccccc3c2=O)cc1
  6	2	16	4780	1	-0.1	-2
[53] CC(C)(C)c1ccc(/C=N/NC(=O)C[n+]2ccccc2)cc1
  ·	·	·	3272	-4	·	-4
[54] CC1(C)CC(=O)C(CC2=C(O)CC(C)(C)CC2=O)C(=O)C1
  9	2	4	6418	-6	3.4	-5
[55] COc1ccc2[nH]c(C(=O)Nc3ncc(C)cc3Br)cc2c1
  9	2	-21	4693	-8	1.5	-11
[56] CN(C(=O)Nc1ccc(Cl)c(Cl)c1)c1ccccc1C(=O)O
  14	8	-22	1971	1	5.9	-22
[57] CCN(CC)C(=O)COc1ccc(/C=C(\C#N)S(=O)(=O)c2ccccc2)cc1OC
  -4	2	-9	4245	6	-0.5	-28
[58] COc1ccc(C)cc1S(=O)(=O)N(CC(=O)NCc1ccco1)c1ccc(C)cc1
  -5	-6	-1	6072	11	-2.2	-14
[59] CCOC(=O)NC1(C(F)(F)F)NC(=O)N(c2ccc(F)cc2)C1=O (stereo not drawn)
  10	0	4	2112	-1	5.5	-10
[60] Cc1ccccc1OCC(=O)N1CCCCCCC1
  16	1	13	4084	-5	8.7	-19

# Random excerpt: three entries already listed, in no set order.
# Fields – Mtb hypoxia inh	Mtb hypoxia inh growth	ugtP null kill	Autofluor counter	BJeLR lethal	RN4220 kill	PrP UTR inh
[60] Cc1ccccc1OCC(=O)N1CCCCCCC1
  16	1	13	4084	-5	8.7	-19
[37] CN(CC(=O)Nc1c(Cl)cccc1Cl)C(=O)c1ccccc1SCC(=O)N1CCCC1
  ·	·	·	6649	6	·	-7
[51] O=C(N/N=C/c1ccc(-c2ccc(S(=O)(=O)Nc3ncccn3)cc2)o1)c1cc2ccccc2cc1O
  ·	·	·	3223	0	·	-22

# Next part:
[61] Cc1ccc(-c2nc(=O)[nH]c3ccccc23)cc1
[62] O=C(Cc1ccccc1)NCC(=O)N1CCN(Cc2cccc(Cl)c2)CC1
[63] O=S(=O)(c1ccc(N2CCCC2c2nc3ccccc3s2)nc1)N1CCOCC1 (stereo not drawn)
[64] CCOC(=O)/C=C/C(=O)Nc1cccc([N+](=O)[O-])c1
[65] COc1ccc(C2/C=C\CN(Cc3ccc(N(C)C)cc3)CC(=O)N2Cc2ccc(F)cc2)cc1 (stereo not drawn)
[66] Cc1ccc(/C=N/NC(=O)c2cc(-c3cccnc3)nc3ccccc23)cc1

Assay by compound | 61 | 62 | 63 | 64 | 65 | 66
Mtb hypoxia inh | 9 | 3 | 6 | 14 | · | ·
Mtb hypoxia inh growth | 2 | -2 | 6 | 9 | · | ·
ugtP null kill | 11 | 4 | 11 | 6 | · | ·
Autofluor counter | 3011 | 7900 | 8649 | 2122 | 3563 | 3894
BJeLR lethal | 0 | · | -15 | -5 | -3 | 20
RN4220 kill | 3.6 | 3.7 | 0.7 | 7.9 | · | ·
PrP UTR inh | -16 | -12 | -17 | -22 | -15 | -58

# Quoted from the listing:
# Cc1ccc(/C=N/NC(=O)c2cc(-c3cccnc3)nc3ccccc23)cc1 | PrP UTR inh = -58
# CCOC(=O)/C=C/C(=O)Nc1cccc([N+](=O)[O-])c1 | BJeLR lethal = -5
# O=S(=O)(c1ccc(N2CCCC2c2nc3ccccc3s2)nc1)N1CCOCC1 (stereo not drawn) | ugtP null kill = 11

# (list continues)
[67] Cc1nnc(SCC(=O)N(CC(C)C)c2c(N)n(Cc3ccccc3)c(=O)[nH]c2=O)n1N
[68] COc1cc(NC(=O)c2cc(-c3cccnc3)nc3ccc(C)cc23)c(OC)cc1Cl
[69] COCC(C)n1c(C)cc(C(=O)COC(=O)c2cccn2C)c1C (stereo not drawn)
[70] CCc1ccccc1Nc1ccc(C(=O)O)cc1N
[71] O=C(NCC1CCCO1)c1ccc2ccccc2n1 (stereo not drawn)
[72] O=C(CN(Cc1ccco1)C(=O)Cn1nnc(-c2cccs2)n1)NCC1CCCO1 (stereo not drawn)
[73] CCN1CCN(CC(=O)c2c(C)n(C)c3ccc(OC)cc23)CC1
[74] O=C(O)CNC(=O)c1ccc2c(c1)OCCO2
[75] CCOCCCN(C(=O)c1snc(C(N)=O)c1N)C(C(=O)NC1CCCC1)c1ccc(O)cc1 (stereo not drawn)

Assay by compound | 67 | 68 | 69 | 70 | 71 | 72 | 73 | 74 | 75
Mtb hypoxia inh | 14 | -23 | -2 | · | · | 11 | · | 1 | 2
Mtb hypoxia inh growth | 1 | -9 | -2 | · | · | 8 | · | 15 | 1
ugtP null kill | 6 | -1 | 1 | -1 | -3 | 6 | -4 | 8 | 20
Autofluor counter | 6738 | · | 2913 | 2818 | 4195 | 4666 | ? | 10091 | 5438
BJeLR lethal | 4 | 1 | · | 1 | 4 | 0 | · | -2 | -4
RN4220 kill | 4.1 | -0.1 | -0.2 | 1.8 | 0.5 | 0.8 | 2.2 | 5.4 | 6.3
PrP UTR inh | -13 | · | 67* | -12 | -38 | -14 | 7 | 1 | 6

# From PubChem BioAssay
